# Compound activity as filed in PubChem BioAssay.
# gsp antagonist – antagonizes gsp, the McCune-Albright syndrome mutation; AID 624288; hit rate 0.4% among 340,000; gsp-mutant cells, cAMP HTRF, 30 min; control for the full effect not named in the record; Potency, µM (titrated, usually from 76.9 µM), for inactives: at the highest dose activity change, negative = inhibition, hits mostly inhibitors; active = falling curve of any shape with a large fitted effect; inconclusive = falling curve, mostly with a smaller effect; inactive = flat or rising curve; cell line not stated here;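 also: intracellular cAMP measured with PDE inhibitor Ro 20-1724 present during compound exposure; potency is read from the fitted curve at half-maximal effect; % is scaled to controls: 0 for no effect and ±100 for the full control effect; nearly all actives have a fitted effect of over 65% in size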
#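 HTRF cAMP read-out (cAMP-d2 plus anti-cAMP antibody-K in lysis buffer, 30 min RT). Before lysis, cells are exposed to compounds with […] for 30 min at 37C in DPBS containing Ca/Mg, BSA and Tween 20.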
# Sfp inh – inhibitors of Bacillus subtilis Sfp phosphopantetheinyl transferase. Q9F4F7. Biochemical Sfp PPTase activity, qHTS. Potency, µM, without a hit: max response, negative = inhibition, hits mostly inhibitors. hit rate 3.5% among 310,000; active = well fitted inhibition curve with a large enough effect; inconclusive = small, poorly fitted or top-dose-only effect, or another doubt; inactive = no such curve, though single readings can be large or run the other way;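 also: the enzyme is Sfp with the accession as filed and its product quenches rhodamine fluorescence; potency is read from the fitted curve at half-maximal effect; 0% = enzyme reaction without inhibitor and -100% = no enzyme wells; top concentration of the series not given in the record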
#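 Reaction rates are the 30-min fluorescence difference (ex 525, em 598 nm) in wells containing 15 nM Sfp, 5 uM rhodamine-CoA and 12.5 uM BHQ-2-YbbR at pH 7.6 with 10 mM MgCl2.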
# ClpP mod – qHTS Assay for Activators of ClpP. ATP-dependent Clp protease proteolytic subunit (Bacillus subtilis (strain 168)), P80244. hit rate 1.9% among 340,000. purified B. subtilis ClpP, FRET peptide cleavage, 20 min. AID 651965, 2013. Potency, µM (titrated, usually from 57.5 µM), inactives show top-dose activity change, negative = active; active = well fitted falling curve with a large enough effect; inconclusive = small, poorly fitted or top-dose-only effect; inactive = no such curve, though single readings can be large or run the other way; also: potency is read from the fitted curve at half-maximal effect; the source files actives as falling curves though it sought activators and does not explain the sign; nearly all actives have a fitted effect of over 65% in size; many hits overshoot -100%
# Target sequence (P80244 whole entry, looked up): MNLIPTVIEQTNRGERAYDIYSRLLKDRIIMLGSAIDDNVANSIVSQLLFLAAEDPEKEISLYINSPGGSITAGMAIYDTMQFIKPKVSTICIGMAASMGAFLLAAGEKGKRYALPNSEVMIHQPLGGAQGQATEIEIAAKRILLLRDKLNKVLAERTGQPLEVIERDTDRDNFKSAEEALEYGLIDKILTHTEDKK
#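 ClpP 10 microg/mL final, pH 8 Tris/KCl buffer with BSA, glycerol, Tween-20; compound pinned in; FRET-FV substrate; RT 20 min; Ex320/Em430; ΔFRET vs ADEP 5.8 microM, DMSO, no enzyme.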
# CtBP-E1A inh – inhibitors of CtBP/E1A interaction | AID 651724 | activity change, % (test concentration not listed) | AlphaScreen GST-E1A/His-CtBP binding, 1536-well; stronger effect = lower value; control for the full effect not named in the record | hit rate 0.49% among 340,000; in the data active means activity change below about -65%; inconclusive means about -30% to -65%; inactive means above about -30%; also: % is scaled to controls: 0 for no effect and ±100 for the full control effect; compound concentration not given in the record
#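 In 5 uL wells, 23 nL compound meets equimolar GST-E1A and His-CtBP (5X stock 125 nM each) for 2 h, 37 °C. Beads (5X, 50 ug/mL) then 1 h, 37 °C, dark.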
# TRPV1 PAM – enhances activation of the human vanilloid receptor TRPV1. TRPV1-expressing cells, Fluo-8 calcium influx, capsaicin EC20 potentiation; host cell line not named in the record; control for the full effect not named in the record. hit rate 0.02% among 320,000. potentiation, % at 8.33 µM. AID 540277. Q8NER1; active means potentiation above 80%; inconclusive means 30% to 80%; inactive means below 30%; also: 0% is about no effect
# Target sequence (Q8NER1 whole entry, looked up): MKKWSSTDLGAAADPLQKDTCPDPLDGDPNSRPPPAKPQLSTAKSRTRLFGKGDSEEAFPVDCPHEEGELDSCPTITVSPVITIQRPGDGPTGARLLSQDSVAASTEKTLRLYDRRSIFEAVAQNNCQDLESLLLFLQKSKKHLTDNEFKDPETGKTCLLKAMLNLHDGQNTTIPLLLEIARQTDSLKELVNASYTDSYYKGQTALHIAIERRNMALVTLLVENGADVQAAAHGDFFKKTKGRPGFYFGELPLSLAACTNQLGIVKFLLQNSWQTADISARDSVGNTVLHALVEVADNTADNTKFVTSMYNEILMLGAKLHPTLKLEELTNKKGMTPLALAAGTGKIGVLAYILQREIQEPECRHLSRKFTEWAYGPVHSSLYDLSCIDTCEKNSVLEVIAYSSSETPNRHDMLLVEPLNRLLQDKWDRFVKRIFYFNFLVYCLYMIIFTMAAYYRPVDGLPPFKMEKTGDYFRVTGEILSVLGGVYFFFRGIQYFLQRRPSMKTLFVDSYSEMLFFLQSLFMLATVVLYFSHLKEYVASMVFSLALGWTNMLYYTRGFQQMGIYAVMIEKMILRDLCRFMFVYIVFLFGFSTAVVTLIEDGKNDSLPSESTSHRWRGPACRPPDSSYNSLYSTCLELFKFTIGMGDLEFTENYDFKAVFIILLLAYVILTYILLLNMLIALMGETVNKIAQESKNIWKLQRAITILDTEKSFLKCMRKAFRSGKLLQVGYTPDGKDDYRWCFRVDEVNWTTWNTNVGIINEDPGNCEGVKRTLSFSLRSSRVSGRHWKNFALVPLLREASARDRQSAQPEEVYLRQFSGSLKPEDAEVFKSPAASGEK
#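 Fluo-8 calcium influx in TRPV1-expressing cells, kinetic read (ex 480/em 520 nm). Compound added and read 3 min for agonist activity, followed by capsaicin at EC20 final and 2 min further read for enhancement.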
# gsp agonist – activates gsp, the McCune-Albright syndrome mutation; gsp mutant cells, cAMP HTRF, 30 min; control for the full effect not named in the record; hit rate 0.13% among 340,000; Potency, µM (top dose mostly 76.9 µM), inactives show at the highest dose activation (cAMP increase), actives largely listed as activators; active = well fitted activation curve with a large enough effect; inconclusive = small, poorly fitted or top-dose-only effect, or another doubt; inactive = no such curve, though single readings can be large or run the other way; cell line not stated here;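 also: phosphodiesterase inhibitor Ro 20-1724 added with compounds to block cAMP breakdown; potency is read from the fitted curve at half-maximal effect; nearly all actives have a fitted effect of over 60% in size; about a fifth of the inactives were tested at one dose only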
#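 Cells in DMEM/10% FBS with G418 were pretreated with compounds in DMSO plus […] (300 uM stock) for 30 min at 37C. cAMP was measured by HTRF (cAMP-d2 plus anti-cAMP antibody-K) after 30 min at room temperature.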
# Menin-MLL FL inh – inhibitors of human menin-MLL interaction, wild-type MLL peptide | FP activity change, % at 61.4 µM | 290,000 tested, under 10 active | Fluorescence polarization, fluorescein-MLL peptide displacement from menin; inconclusive = falling polarisation curve, or a change in total fluorescence; inactive = total fluorescence flat and polarisation flat or rising; no compound was filed as active; the % refers to the polarisation; negative = inhibition;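 also: % of control where 0% means no effect; inhibitors lower the polarisation; unlabelled MLL peptide was the positive control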
# * marks the source's active call; other numbers are inactive results; ? = inconclusive; . = not tested or not shown; & = joins results of further samples; [ ] = dose if it differs, or a comment.
SMILES,gsp antagonist,Sfp inh,ClpP mod,CtBP-E1A inh,TRPV1 PAM,gsp agonist,Menin-MLL FL inh
CC(=O)Oc1cccc2c1C(=O)c1c(OC(C)=O)cc(C(=O)O)cc1C2=O,1.7%,-0.1%&-8.8%,-4.4%,-12.3,-5.6,.,?
Cc1ccc2nc(-c3ccc(NS(C)(=O)=O)cc3)cc(-c3ccccc3)c2c1,-8.7%,5.9%,?,-9.8,5.4,35.9%,5.3
Cc1ccc(-c2nnc(NC(=O)CCS(=O)(=O)c3ccccc3)o2)c(C)c1,-4.6%,.,1.6%,4.4,4.6,7.5%,.
Cc1ccc(-c2csc(N3CCN(c4cc5c(cc4Cl)nc(C)n5CCN4CCCCC4)CC3)n2)cc1,-7.5%,50.1µM*,-3.9%,-12.3,23.1,.,18.4
CCOc1cc(NC(=S)NCC(C)C)c(OCC)cc1NC(=O)c1cccs1,5.9%,17.7%,-0.5%,3.2,-17.6,19.5%,5.7
O=[N+]([O-])c1ccc(N2CCN(S(=O)(=O)c3ccccc3[N+](=O)[O-])CC2)cc1NCc1cccnc1,-14.9%,?,-1.4%,3.0,5.1,5.3%,4.4
CSc1ncc(C(=O)Nc2ccc(C(C)=O)cc2)c(C)n1,-8.8%,7.2%,-2.7%,-0.6,3.7,-12.5%,14.0
CCOC(=O)C(NC(C)=O)(Nc1ccc(S(=O)(=O)Nc2onc(C)c2C)cc1)C(F)(F)F (centres undefined),7.1%,13.3%,-1.3%,3.8,18.7,-28.2%,2.9
Cc1cnn(-c2cc(N/N=C/c3ccccc3F)ncn2)c1,4.8%,7.7%,-0.2%,-2.0,-22.0,-19.4%,2.7
O=C(O)c1ccc(NC(=O)C2(c3ccccc3)CCCC2)cc1,-3.7%,11.0%,.,7.2,-0.8,-20.2%[15.4 µM],1.3
COCCSc1ccccc1C(=O)Nc1nccs1,-0.8%,-3.5%,7.6%,4.2,-26.8,6.5%,0.7
CCN(CC)S(=O)(=O)c1ccc(NC(=O)c2ccc(OCC3CCCO3)cc2)cc1 (centres undefined),?,.,0.8%,-0.8,-15.3,5.3%,.
O=C(CN1C(=O)S/C(=C\c2ccc(Cl)cc2)C1=O)NC1C=CS(=O)(=O)C1 (centres undefined),-16.2%,-4.2%,-1.3%,10.5,-7.1,4.4%,-0.4
COc1cccc(C(=O)Nc2ccccc2C(=O)NCC2CCCO2)c1 (centres undefined),-2.8%,-1.2%,1.7%,2.7,-19.4,-77.2%[inhibitor],-6.8
COc1ccc(N(Cc2cc(=O)[nH]c3ccccc23)C(=O)CCl)cc1,4.1%,3.3%,.,1.3,5.8,-14.4%,2.6
COc1ccc(Cl)cc1S(=O)(=O)NC(C)C(=O)NCc1ccccn1 (centres undefined),2.7%,-4.7%,.,5.7,-12.0,-23.3%,-0.5
COCCCNC(=O)c1cn(C)c(=O)c2c1c1ccccc1n2C,3.0%,6.1%,.,2.0,5.6,-1.9%[15.4 µM],4.6
O=C(COC(=O)C1CCC(=O)N1)Nc1cccc([N+](=O)[O-])c1 (centres undefined),0.8%,.,-2.5%,.,.,-6.9%,.
C=C(CCO)C1=CCN(S(=O)C(C)(C)C)[C@H]1CCO (some centres undefined),-9.5%,.,-2.7%,0.0,.,.,.
O=C(Nc1cc2c3c(c1)CC(=O)N3CCC2)c1ccco1,-2.5%,.,.,-9.6,9.4,-1.2%[15.4 µM],.
CCC(CO)Oc1cc(NCc2ccc(F)cc2)c2ncn(C(C)C)c2c1 (centres undefined),-0.7%,.,-0.4%,-3.6,.,.,.
CCCCCn1c(CCNC(=O)c2cccs2)nc2ccccc21,-9.3%,1.6%,0.0%,4.4,-7.6,-59.9%[inhibitor],1.3
CC(=O)Nc1ccc(NC(=O)C(C)Sc2nc3ccccc3c(=O)n2CC2CCCO2)cc1 (centres undefined),-18.0%,.,-1.9%,5.1,-15.7,?,.
CCNc1nc(NCC)nc(Oc2ccc(OCC)nn2)n1,6.5%,7.5%,-0.1%,-0.1,-1.4,2.4%,0.1
CCCN(Cc1cc2cc(C)ccc2[nH]c1=O)C(=O)c1cccc(OC)c1,-9.6%[15.4 µM],4.7%,?,1.2,14.0,-32.3%[inhibitor],-4.3

# Later entries:
SMILES,gsp antagonist,Sfp inh,ClpP mod,CtBP-E1A inh,TRPV1 PAM,gsp agonist,Menin-MLL FL inh
Cc1sc2nc(SCC(=O)N(CCO)CCO)n(C3CCCCC3)c(=O)c2c1C,-2.2%,14.0%,6.0%,4.3,-17.2,0.0%,0.6
O=C(NCc1ccccc1)C(c1cccs1)N(Cc1cccs1)C(=O)c1cnccn1 (centres undefined),-9.4%,3.6%,-5.8%,2.5,-1.1,-14.9%,3.1
CC1(C)Cc2cccc(OCC(=O)Nc3ccc(S(N)(=O)=O)cc3)c2O1,-5.3%,.,0.7%,-1.6,-5.8,-3.1%,.
CCOCCCN1CN(S(=O)(=O)c2ccc(Cl)cc2)c2nc3ccccc3nc21,-2.1%,-0.6%,?,-0.6,15.1,3.5%,1.2
Cc1c(C(=O)NC(=S)Nc2ccccc2N2CCCC2)cccc1[N+](=O)[O-],6.6%,?,-0.5%,-19.1,15.6,-39.6%[inhibitor],7.9
Nn1c(SCC(=O)Nc2ccccc2C(F)(F)F)nncc1=O,11.8%,19.6%,1.9%,-4.2,4.4,?,6.6
CCNc1nc(NC(C)C)nc(N(C#N)C(C)C(=O)N(CC)CC)n1 (centres undefined),-14.1%,-8.9%,2.2%,5.1,2.5,5.2%,-0.7
O=C(c1cnccn1)N(Cc1cccs1)C1(C(=O)NC2CCCCC2)CCCCC1,-1.7%,7.6%,1.5%,0.0,-1.5,-2.8%,-1.0
Cc1cc(C)cc(OCC(=O)NNC(=O)c2cc3ccccc3oc2=O)c1,3.7%,13.1%,-8.3%,2.7,15.0,-21.7%,5.4
COc1ccc(NC(=O)c2ccc(NC(=O)C3COc4ccccc4O3)cc2)c(OC)c1 (centres undefined),8.6%,.,.,2.1,.,1.6%[15.4 µM],.
CCOc1ccc(NC(=O)CN(C)S(=O)(=O)c2cccs2)cc1,-3.0%,-28.9%,0.8%,2.7,-1.7,-28.6%,1.9
CC(C)(C)CN1CCNC(=O)C1CC(=O)NCCc1ccccc1F (centres undefined),5.2%,-5.8%,.,4.7,-8.2,-0.4%,?
CC(=O)NCc1nc2ccccc2n1Cc1ccccc1C,4.4%,23.6%,-1.5%,-2.1,-12.7,-8.6%,2.5
CC(=O)Nc1cc2c(cc1Cl)Cc1cc(Cl)ccc1-2,3.4%,.,.,-6.2,.,1.9%,.
CCOC(=O)N1CCOCCOCCN(C(=O)OCC)CCOCC1,-1.3%,5.9%,-0.3%,4.6,-2.3,7.9%,-0.1
O=c1c2c(nc3c(-c4cccc(Br)c4)c[nH]n13)CCCC2,-3.8%,15.5%,-6.7%,-9.2,-11.7,7.9%,2.6
COc1ccc(C(=O)C[n+]2ccc3c(c2)nnn3-c2ccccc2)cc1,-8.5%,9.2%,1.1%,3.7,-4.8,-10.1%[15.4 µM],2.0
O=C(/C=C/c1ccc(Cl)cc1Cl)N1CCc2ccccc21,-3.8%,6.6%,0.5%,2.9,-6.1,-12.8%[15.4 µM],-0.7
Cc1cc(C(=O)O)ccc1[N+](=O)[O-],-1.2%,.,-3.0%,-17.2,-3.5,.,.
COc1cc(O)ccc1/C=N/NC(=O)c1ccc([N+](=O)[O-])cc1,-8.6%,15.4%,.,.,-28.1,10.0%[15.4 µM],0.3
O=C1[C@H](Cc2ccccc2)NCCCC[C@@H](c2ccc(Cl)cc2)N1Cc1ccc(Cl)cc1,-7.0%,.,-5.6%&1.5%,-3.2,.,21.8%,.
COc1ccc(C2CC(c3cccs3)=NN2C(=O)CCl)cc1OC (centres undefined),-8.0%,15.9%,-7.7%,-12.4,16.8,-11.5%,2.1
CCC(=O)c1c[nH]c(C(=O)NCc2cccc(C(F)(F)F)c2)c1,-16.1%,11.3%,-0.1%,2.2,23.3,-5.8%[15.4 µM],-5.7
CC(=O)N1CCC(C(=O)OCc2ccccc2F)(c2ccccc2)CC1,1.7%,5.3%,1.5%,-0.4,-18.7,6.5%[15.4 µM],-2.2
COc1cc(/C=N/n2cnnc2-n2nc(C)cc2C)cc([N+](=O)[O-])c1O,0.1%,-7.5%,0.5%,12.0,2.3,-11.7%,-1.5

# (more compounds)
SMILES,gsp antagonist,Sfp inh,ClpP mod,CtBP-E1A inh,TRPV1 PAM,gsp agonist,Menin-MLL FL inh
COC(=O)CCC[C@H]1CC2(C[C@H](CCCO[Si](C)(C)C(C)(C)C)N1C(=O)OC(C)(C)C)OCCO2,-8.0%,.,-0.4%,8.7,-27.3,-18.8%,.
O=C(NCCC1=CCCCC1)c1ccc(Cl)c(S(=O)(=O)Nc2ccccc2)c1,?,13.5%,0.0%,23.3,-20.6,-6.0%,1.8
O=c1cc(CN2CC(O)Cc3ccc4ccccc4c32)nc2sccn12 (centres undefined),-8.3%,6.3%,.,3.3,0.1,19.8%,1.2
Cc1ccc(Nc2nnc(SCC(=O)NCc3ccco3)s2)cc1,5.1%,?,-2.9%,-13.0,-16.5,-26.5%,1.0
COc1ccc(NC2CCCN(C(=O)COc3ccc(Cl)cc3C)C2)cc1OC (centres undefined),-5.1%,6.0%,-3.7%,1.0,-6.5,4.5%[15.4 µM],.
CCOC(=O)c1sc(Nc2ccc(OCC)cc2)nc1C,-5.7%,6.5%,-2.9%,8.4,-1.6,2.4%,1.6
Cc1ccc(NC(=O)Cn2cnc3c(OCc4ccccc4)ncnc32)cc1C,-6.0%,.,-0.4%,4.4,.,.,.
O=c1c(Cc2c(F)cccc2Cl)c(O)ccn1CCCN1CCOCC1,-2.3%,12.1%,0.4%,.,-3.7,-12.1%,3.4
O=C(NC1CCCCC1)c1cc([N+](=O)[O-])[nH]n1,-20.7%,-19.4%,1.6%,17.2,4.7,-0.7%,5.1

# Rows are unselected. Share with any hit: about 5.3%.
